ATG4B inhibitor = inhibitors of human ATG4B cysteine protease. Q9Y4P1. ATG4B cleavage of LC3-PLA2, NBD-HPC fluorescence, 1 h. inhibition, % at 8.33 µM. actives 0.51% (n = 340,000). AID 504462; in the data active means inhibition above about 40%
hIAP block = human IAP inhibition; purified IAP, CDP-Star luminescence, 30 min; actives 0.12% (n = 330,000); P09923; inhibition, % at 10 µM;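 active means inhibition reaching a set limit with compound at 10 µM in the primary screen, cut at about 35% in these data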;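 further: plate controls were DMSO wells with enzyme for no effect and no-enzyme buffer wells for full effect; values of inactives mirror those of a sister screen read the other way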
Target sequence (P09923 whole entry, looked up): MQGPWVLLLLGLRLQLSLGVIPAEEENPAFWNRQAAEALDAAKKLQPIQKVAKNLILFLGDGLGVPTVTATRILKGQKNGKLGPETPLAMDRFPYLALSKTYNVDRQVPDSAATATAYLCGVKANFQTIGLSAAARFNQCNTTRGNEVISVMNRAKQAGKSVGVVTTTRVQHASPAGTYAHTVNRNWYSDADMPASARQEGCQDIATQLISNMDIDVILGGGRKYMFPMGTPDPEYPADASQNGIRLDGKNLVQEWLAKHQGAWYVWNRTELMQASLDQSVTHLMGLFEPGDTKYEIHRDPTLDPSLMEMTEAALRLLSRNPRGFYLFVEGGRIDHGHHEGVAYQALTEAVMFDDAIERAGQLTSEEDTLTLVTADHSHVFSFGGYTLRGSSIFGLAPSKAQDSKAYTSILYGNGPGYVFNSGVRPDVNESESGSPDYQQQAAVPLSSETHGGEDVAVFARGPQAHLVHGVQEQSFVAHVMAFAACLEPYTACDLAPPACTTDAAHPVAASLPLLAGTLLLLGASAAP
APOBEC3G inh = inhibitors of human APOBEC3G DNA deaminase. AID 493012. recombinant A3G, ssDNA deamination FAM/TAMRA fluorescence. actives 0.28% (n = 330,000). Q9HC16. inhibition, % at 20 µM;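 active means inhibition of at least 40% at 20 µM, with no more than 30% in the related APOBEC3A deaminase screen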;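 further: plate controls were DMSO wells with A3G for no effect and wells lacking A3G enzyme for full effect; some compounds called inactive have numbers as strong as hits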
hIAP activ = human IAP activation | activation factor at 10 µM | purified human IAP, CDP-Star luminescence, 30 min; stronger effect = higher value; 1 = vehicle-only enzyme, 0 = enzyme-free background | AID 2524 | P09923 | actives 0.16% (n = 330,000);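 active means activation factor of the enzyme at least 2-fold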; further: the source names both 10 and 20 µM as test concentration; values of inactives mirror those of a sister screen read the other way
mIAP inh = blocks mouse intestinal alkaline phosphatase; inhibition, % at 10 µM; purified mouse IAP, CDP-Star luminescence, 30 min; AID 2806; actives 0.2% (n = 330,000);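 active means inhibition of at least 40% at 10 µM in the primary screen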;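 further: plate controls were DMSO with enzyme for no effect and no enzyme wells for full effect; values of inactives mirror those of a sister screen read the other way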
APOBEC3A inh = human APOBEC3A DNA deaminase inhibition; P31941; recombinant A3A, FAM/TAMRA ssDNA deamination fluorescence; inhibition, % at 20 µM; actives 0.41% (n = 330,000); AID 493011;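 active means at least 40% inhibition at 20 µM here, with at most 30% in a related deaminase screen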;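 further: plate controls were A3A with DMSO for no effect and wells lacking A3A enzyme for full effect; some results filed as inactive read as strong as hits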
Target sequence (P31941 whole entry, looked up): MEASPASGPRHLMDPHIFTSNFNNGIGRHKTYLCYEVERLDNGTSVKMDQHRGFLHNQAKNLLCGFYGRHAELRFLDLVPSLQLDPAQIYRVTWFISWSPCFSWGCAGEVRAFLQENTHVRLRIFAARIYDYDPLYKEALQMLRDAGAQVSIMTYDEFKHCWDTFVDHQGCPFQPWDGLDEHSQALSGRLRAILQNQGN
mIAP activ = increases mouse intestinal alkaline phosphatase activity; muIAP, CDP-Star luminescence, 30 min; stronger effect = higher value; 1 = vehicle-only enzyme signal, 0 = enzyme-free wells; activation factor at 10 µM; actives 0.24% (n = 330,000); AID 2805;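 active means activation factor of at least 2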; further: the source names both 10 and 20 µM as test concentration; values of inactives mirror those of a sister screen read the other way
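Assay system: mouse IAP enzyme; Reagent: CDP-Star chemiluminescent phosphatase substrate; Compound: DMSO-dissolved test compounds; Incubation: 30 min, room temperature; Technique: luminescence from enzymatic CDP-Star hydrolysis; Controls: DMSO-only wells and no-enzyme negative control.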
beta cell repl = MIN6 beta-cell proliferation induction; actives 0.29% (n = 330,000); proliferation, % at 10 µM; AID 2380; MIN6 cells proliferation, ATPlite luminescence, 48 h; cells starved in 0.2% serum; 100% = growth in 10% serum;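 active means compounds whose signal lies at least 3.5 SD above the mean of all wells on their plate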;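 further: 0% = DMSO-treated cells in low-serum medium and 100% = 10% serum control; some compounds called inactive have numbers as strong as hits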
* hit, by the source's call; & = joins results of further samples. The list is partial (hit frequency here may not be typical).

SMILES	ATG4B inhibitor	hIAP block	APOBEC3G inh	hIAP activ	mIAP inh	APOBEC3A inh	mIAP activ	beta cell repl
CC(=O)Nc1ccc(S(=O)(=O)NC2(C(F)(F)F)C(=O)Nc3c2c(=O)[nH]c(=O)n3Cc2ccco2)cc1 (centres undefined)	-1	16	-9	0.83	0	-5	0.99	-2
O=C(Cn1c2ccccc2c(=O)c2cc([N+](=O)[O-])ccc21)Nc1ccccc1Cl	4	-18	-5	1.2	11	11	0.89	-2
O=C(c1ccc(F)cc1)C1CCN(C(=O)c2ccccc2F)CC1	-5	-6	-2	1.1	16	-4	0.84	-3
Nc1nc2ccc(OC(F)(F)F)cc2s1	3	11	-5&-3	0.88	-3	-3&2	1.1	-5
CCC(=O)NC(=S)Nc1ccc(NC(=O)c2ccco2)c(Cl)c1	-6	2	0	0.98	10	0	0.9	-5
COc1ccc(Nc2nc(N)nc(CCl)n2)cc1	-9	-18	-3	1.2	2	-1	0.98	-4
C=CCC(C#N)(c1ccc(OC)c(OC)c1)c1cnccn1 (centres undefined)	-6	-6	6	1.1	5	6	0.95	1
O=C(CSCc1ccc([N+](=O)[O-])cc1)NN=C1CCCCCC1	2	7	-6	0.93	6	-1	0.94	-2
O=c1ccn([C@@H]2O[C@H](CO)[C@@H](O)[C@H]2O)c(=O)[nH]1	-6	-2	-5	1	-1	0	1	-1
NS(=O)(=O)c1ccc(NC(=O)c2ccccc2C(=O)N2CCCCC2)cc1	3	-36	2	1.4	-7	7	1.1	-1

2 entries drawn at random from the list so far, as already listed:
SMILES	ATG4B inhibitor	hIAP block	APOBEC3G inh	hIAP activ	mIAP inh	APOBEC3A inh	mIAP activ	beta cell repl
O=C(Cn1c2ccccc2c(=O)c2cc([N+](=O)[O-])ccc21)Nc1ccccc1Cl	4	-18	-5	1.2	11	11	0.89	-2
O=C(CSCc1ccc([N+](=O)[O-])cc1)NN=C1CCCCCC1	2	7	-6	0.93	6	-1	0.94	-2

(next part)
SMILES	ATG4B inhibitor	hIAP block	APOBEC3G inh	hIAP activ	mIAP inh	APOBEC3A inh	mIAP activ	beta cell repl
CCOc1cc(/C=N/n2cnnc2)ccc1OC(=O)c1cccc([N+](=O)[O-])c1	-13	8	-4	0.92	9	-18	0.91	2
CN=C(Nc1cc(C)nn1-c1ccccc1)c1ccccc1F	0	19	-4	0.81	0	0	1	0
Cc1ccc(S(=O)(=O)N2CCN(c3ncnc4ccccc34)CC2)cc1	-12	0	-6	1	11	-1	0.89	-8
COCCNC(=O)C(c1ccncc1)N(Cc1ccccc1)C(=O)Cn1nnc2ccccc21 (centres undefined)	-8	-21	-2	1.2	3	1	0.97	2
COc1ccc(/C=N/NC(=O)CO/N=C(\C)c2cccs2)cc1	7	8	-5	0.92	9	-2	0.91	0
CN1C(=O)C(N=Nc2ccccc2C(=O)O)N(C)C1=S (centres undefined)	41*	9	-6	0.91	18	-1	0.82	1
CN(C)c1ccc(O)c2c1CC1CC3[C@@H](N(C)C)C(=O)C(C(N)=O)=C(O)[C@]3(O)C(=O)C1=C2O (some centres undefined)	-1	-28	42	1.3	20	95	0.8	-4
N#Cc1nc(Cc2cccc3ccccc23)oc1N1CCN(c2ccccc2)CC1	6	-11	-3	1.1	1	-1	0.99	-3
O=C(O)c1ccc(S(=O)(=O)N2CCC(NC(=O)C3CCCCC3)CC2)cc1	1	14	-11	0.86	4	-3	0.96	0
NS(=O)(=O)c1cc(C(=O)O)c(NCc2ccco2)cc1Cl	3	-8	-10	1.1	-8	-1	1.1	-3

16 compounds already listed, arranged by length of the SMILES, smallest number first:
SMILES	ATG4B inhibitor	hIAP block	APOBEC3G inh	hIAP activ	mIAP inh	APOBEC3A inh	mIAP activ	beta cell repl
Nc1nc2ccc(OC(F)(F)F)cc2s1	3	11	-5&-3	0.88	-3	-3&2	1.1	-5
COc1ccc(Nc2nc(N)nc(CCl)n2)cc1	-9	-18	-3	1.2	2	-1	0.98	-4
CN=C(Nc1cc(C)nn1-c1ccccc1)c1ccccc1F	0	19	-4	0.81	0	0	1	0
C=CCC(C#N)(c1ccc(OC)c(OC)c1)c1cnccn1 (centres undefined)	-6	-6	6	1.1	5	6	0.95	1
NS(=O)(=O)c1cc(C(=O)O)c(NCc2ccco2)cc1Cl	3	-8	-10	1.1	-8	-1	1.1	-3
COc1ccc(/C=N/NC(=O)CO/N=C(\C)c2cccs2)cc1	7	8	-5	0.92	9	-2	0.91	0
CCC(=O)NC(=S)Nc1ccc(NC(=O)c2ccco2)c(Cl)c1	-6	2	0	0.98	10	0	0.9	-5
O=C(CSCc1ccc([N+](=O)[O-])cc1)NN=C1CCCCCC1	2	7	-6	0.93	6	-1	0.94	-2
Cc1ccc(S(=O)(=O)N2CCN(c3ncnc4ccccc34)CC2)cc1	-12	0	-6	1	11	-1	0.89	-8
N#Cc1nc(Cc2cccc3ccccc23)oc1N1CCN(c2ccccc2)CC1	6	-11	-3	1.1	1	-1	0.99	-3
NS(=O)(=O)c1ccc(NC(=O)c2ccccc2C(=O)N2CCCCC2)cc1	3	-36	2	1.4	-7	7	1.1	-1
O=C(O)c1ccc(S(=O)(=O)N2CCC(NC(=O)C3CCCCC3)CC2)cc1	1	14	-11	0.86	4	-3	0.96	0
O=c1ccn([C@@H]2O[C@H](CO)[C@@H](O)[C@H]2O)c(=O)[nH]1	-6	-2	-5	1	-1	0	1	-1
CCOc1cc(/C=N/n2cnnc2)ccc1OC(=O)c1cccc([N+](=O)[O-])c1	-13	8	-4	0.92	9	-18	0.91	2
O=C(Cn1c2ccccc2c(=O)c2cc([N+](=O)[O-])ccc21)Nc1ccccc1Cl	4	-18	-5	1.2	11	11	0.89	-2
CN(C)c1ccc(O)c2c1CC1CC3[C@@H](N(C)C)C(=O)C(C(N)=O)=C(O)[C@]3(O)C(=O)C1=C2O (some centres undefined)	-1	-28	42	1.3	20	95	0.8	-4

The list goes on:
SMILES	ATG4B inhibitor	hIAP block	APOBEC3G inh	hIAP activ	mIAP inh	APOBEC3A inh	mIAP activ	beta cell repl
COc1ccccc1Nc1ccc(NS(=O)(=O)c2ccc(C(C)=O)cc2)cc1	-8	11	-8	0.89	-2	-2	1	-2
CCOC(=O)c1c(C)n(C)c2ccc(OC)c(NC(=O)CN3CCN(C(=O)c4ccco4)CC3)c12	-3	-2	1	1	-13	3	1.1	-2
O=C1/C(=C\c2ccc(C(F)(F)F)cc2)CSc2sccc21	-1	-10	6	1.1	7	0	0.93	-7
CC1CCCC(C)N1C(=S)NCc1ccco1 (centres undefined)	-3	-4	-7	1	5	-4	0.95	2
CCOc1ccc(NC(=O)c2cc(C3CC3)nc3c2cnn3C(C)C)cc1OC	15	-18	10	1.2	11	51*	0.89	1
O=C(Nc1nc2cc3c(cc2s1)OCCO3)c1ccncc1	-13	1	-2	0.99	8	4	0.92	-4
CC[C@H]1CN2CCc3cc(OC)c(OC)cc3C2C[C@@H]1C[C@H]1NCCc2cc(OC)c(OC)cc21 (some centres undefined)	-7	14	-3	0.86	-4	-2	1	-8

Assay outcomes (PubChem)
